# Beta cell apopt: blocks beta cell apoptosis; INS-1E cytokine-induced death, ATP luminescence, 48 h; percent of positive-control rescue, neutral wells zero; protection from apoptosis, % (no concentration beside the values); AID 435005; actives 0.8% (n = 300,000);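 active = all replicates at 75% or more, or half of them and the mean; inconclusive = half reach 75% but not the mean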;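 note: 0% = cytokine-treated negative control wells and 100% = positive control rescue; higher means more ATP so stronger rescue from cytokine killing; wells of about 40 µL received 100 nL stock; the first replicate is given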
# Calb FLC: affects C. albicans growth with fluconazole. growth inhibition, % (concentration not given with the values). actives 0.57% (n = 300,000). AID 1979. C. albicans CaCi-2 (fluconazole-resistant clinical isolate) + fluconazole, Alamar Blue growth, 48 h;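 active = most replicates above 75%; inconclusive = exactly half above 75%; inactive = most below 75%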;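 note: all wells also contain fluconazole at 8 µg/ml as a sub-toxic cotreatment; 0% = median of DMSO wells and 100% = median of geldanamycin control wells; wells of about 8 µL received 7.5 nL stock; the first replicate is given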
# FGF22 binding: FGF22 (human) thermal shift binding; recombinant FGF22 thermal shift, SYPRO orange fluorescence; percent of sucrose octasulfate shift, DMSO zero; Q9HCT0; calls only at 9.99 µM; actives 1.5% (n = 340,000);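 active = melting point raised past a set limit in the mean and every replicate; inconclusive = no clear call; three in four hits are not shown here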
# Target sequence (Q9HCT0 whole entry, looked up): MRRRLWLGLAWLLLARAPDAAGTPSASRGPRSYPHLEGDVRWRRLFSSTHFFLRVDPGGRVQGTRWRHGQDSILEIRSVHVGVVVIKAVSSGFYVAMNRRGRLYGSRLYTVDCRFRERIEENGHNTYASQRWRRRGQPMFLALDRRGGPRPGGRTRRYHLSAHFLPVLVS
# T cruzi inh: T. cruzi replication inhibition; actives 1.4% (n = 300,000); AID 1885; T. cruzi beta-gal in NIH3T3, luminescence, 90 h; inhibition, % (concentration not given with the values);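 active = mean inhibition across valid replicates above about 55%, limit read from the data; inconclusive = mean below that limit but half or more replicates reach it; inactive = mean below it, under half of replicates reach it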;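 note: signal also drops with host cell toxicity which is not excluded here; 0% = plate median of DMSO wells and 100% = zero luminescence signal; higher percent means less beta-gal luminescence so fewer parasites; stock transfer was 50 nL into about 50 µL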
# ALR H2O2 inh: inhibitors of human sulfhydryl oxidase ALR. actives 3.8% (n = 290,000). purified ALR, DTT oxidation, H2O2 HRP-luminol luminescence. P55789. inhibition, % (test concentration not listed). AID 485317;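 active = mean and each replicate at 75% or more; inconclusive = only one of the two met; inactive = neither met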;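 note: stock transfer was 7.5 nL into about 7.5 µL; 0% = neutral wells and 100% = wells with inactivated enzyme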
# Target sequence (P55789 whole entry, looked up): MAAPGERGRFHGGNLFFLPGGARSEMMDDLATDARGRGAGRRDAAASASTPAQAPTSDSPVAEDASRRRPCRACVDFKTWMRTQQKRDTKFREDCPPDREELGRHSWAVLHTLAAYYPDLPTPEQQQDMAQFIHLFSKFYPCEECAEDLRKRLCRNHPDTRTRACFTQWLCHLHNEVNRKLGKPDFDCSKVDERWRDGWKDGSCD
# Ecoli rRNA inh: inhibitors of bacterial rRNA selective over humanized ribosomes; E. coli WT GFP vs humanized-ribosome RFP mutants, fluorescence, 24 h; hits give low values; DMSO median 0, no signal -100; GFP signal change (wild-type ribosome), % (no concentration beside the values); actives 1.6% (n = 350,000); AID 720706;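 active = significant combined selectivity score with lowered wild-type GFP, culture density cut under 30%, mutant RFP and density less affected; inactive = any of these conditions unmet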; note: one replicate is shown; some compounds called inactive have numbers as strong as hits
# RanGTP-Impb inh: inhibitors of RanGTP-importin-beta interaction, primary screen, biochemical, FRET, CFP-Ran, YFP-importin-beta, homogeneous; cell-free CFP-Ran/YFP-importin-beta FRET ratio; actives 1.1% (n = 300,000); inhibition, % (test concentration not listed);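 active = most replicates above 15%; inconclusive = exactly half above 15%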;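 note: 0% = DMSO wells and 100% = Ran loaded with GDP instead of GTP; wells of about 40 µL received 100 nL stock; the first replicate is given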
# AF4-AF9 inh: MLL-AF4/AF9 protein interaction inhibition; P42568; AlphaScreen, biotin-AF4 peptide binding to FLAG-AF9; inhibition, % at 10 µM; actives 0.47% (n = 350,000);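 active = every replicate reaching a set inhibition limit, whatever the replicate mean, cut at about 25% in these data; inconclusive = mean inhibition reaches that limit but some replicates miss it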;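 note: 0% = plate neutral control median and 100% = total signal loss; the record names both 10 and 1 µM as test concentration; the first replicate is given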
# Target sequence (P42568 whole entry, looked up): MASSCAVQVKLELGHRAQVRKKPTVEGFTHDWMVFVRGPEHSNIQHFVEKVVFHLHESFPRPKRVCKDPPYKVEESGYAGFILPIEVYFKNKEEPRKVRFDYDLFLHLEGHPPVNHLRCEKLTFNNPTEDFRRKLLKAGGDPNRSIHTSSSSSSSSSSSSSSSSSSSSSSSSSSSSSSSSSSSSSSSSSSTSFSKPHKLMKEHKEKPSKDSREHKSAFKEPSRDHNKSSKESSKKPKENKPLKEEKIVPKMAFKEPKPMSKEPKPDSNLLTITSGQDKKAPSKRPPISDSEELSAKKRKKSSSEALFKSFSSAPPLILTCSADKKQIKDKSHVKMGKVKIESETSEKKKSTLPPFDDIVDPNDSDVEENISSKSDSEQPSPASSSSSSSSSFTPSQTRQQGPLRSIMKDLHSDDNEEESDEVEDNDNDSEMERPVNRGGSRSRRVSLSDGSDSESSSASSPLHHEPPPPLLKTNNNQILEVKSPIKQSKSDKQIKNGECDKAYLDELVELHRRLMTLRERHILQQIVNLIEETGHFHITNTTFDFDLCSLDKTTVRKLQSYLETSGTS
# Ecoli rRNA inh OD600: also measured in Ecoli rRNA inh; calls as there; OD600 change, %; measured here: OD600 growth;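 optical density of the mix in the first replicate; 0 = DMSO median and -100 = no signal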
# Ecoli rRNA inh RFP: second read-out of Ecoli rRNA inh, no call of its own (marks repeat the call); RFP signal change, %; measured here: RFP humanized mutant strains;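 first replicate; 0 = DMSO median and -100 = no signal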
# Numbers without * were called inactive; i = inactive; u = inconclusive; x = no result given. Some of the compounds tested. The share of hits here may be higher or lower than overall.
SMILES,Beta cell apopt,Calb FLC,FGF22 binding,T cruzi inh,ALR H2O2 inh,Ecoli rRNA inh,Ecoli rRNA inh OD600,Ecoli rRNA inh RFP,RanGTP-Impb inh,AF4-AF9 inh
COc1ccc(Nc2oc(-c3ccc(OC)cc3)nc2C#N)cc1,-2.1,-0.4,i,16.6,-6.4,10.2,7.2,3.5,-0.3,-2.4
Cn1c(=O)cc(OCCCC(=O)NCCN2CCN(c3ccccc3F)CC2)c2ccccc21,0.8,7.7,i,9.9,-1.6,4.5,-3.0,3.2,2.9,-2.9
COc1ccc(CNC(=O)CN2C(=O)NC(c3ccccc3)(c3ccccc3)C2=O)cc1,0.5,x,i,x,-8.1,2.3,-17.4,0.4,x,-0.9
COc1ccc(C(=O)COC(=O)CNC(=O)c2ccc(OC)cc2)cc1,-8.2,7.8,x,-11.8,-3.7,12.4,1.4,2.7,2.9,-1.8
CCOC(=O)N1CCC(NC(=O)CCC(=O)N2CCOc3ccc(C)cc32)CC1,6.3,-14.9,x,-16.7,-22.9,x,x,x,u,x
COc1ccccc1NC(=O)Cc1noc(CN(C)Cc2cccs2)n1,-3.4,1.1,x,-1.5,-16.2,x,x,x,2.4,x
Cc1ccc(NS(=O)(=O)c2cccc(C(=O)NN3CCOCC3)c2)cc1,0.3,0.1,i,11.2,-10.0,21.2,21.8,3.8,-2.4,-1.7
O=C(COC(=O)c1ccc[n+]([O-])c1)Nc1cc([N+](=O)[O-])ccc1Cl,0.7,x,i,x,x,-14.8,0.9,-4.5,x,-1.3
Cc1ccc(/C=C2\SC(=S)N(CCC(=O)N3CCOCC3)C2=O)cc1,-51.4,2.4,i,-27.5,0.2,13.1,18.6,-1.2,3.8,-1.0
COc1ccc(NC(=S)NCC(O)c2ccccc2)c(OC)c1 (stereo not drawn),-6.1,-23.1,i,-9.6,-4.9,8.1,-1.5,-3.5,-2.4,7.0
CC(=O)Nc1ccc(S(=O)(=O)n2nc(C)cc2C)cc1,-1.1,-0.9,x,-0.7,1.3,x,x,x,6.7,x
CCOc1ccc(NC(=O)CN(C)C(=O)Cn2c(=O)cnc3ccccc32)cc1OCC,-1.4,x,i,x,-5.3,2.9,0.3,-0.9,x,-0.1
O=C(CNc1cccc(S(=O)(=O)N2CCCC2)c1)Nc1ccc(F)c(F)c1,3.9,3.5,i,6.5,-4.2,-12.6,-9.6,2.5,0.6,-25.5
COc1ccc(/C=C2\SC(=O)N(CCNC(=O)Cc3coc4cc(OC)ccc34)C2=O)cc1,6.2,10.8,i,10.8,-3.1,x,x,x,-1.5,3.1
Cn1c(=O)[nH]c(=O)c2c1nc(CN1CCN(c3ccc(F)cc3)CC1)n2CCc1ccccc1,3.8,10.0,x,-4.5,-17.1,x,x,x,1.3,x
Cc1cc(=O)oc2cc(OCC(=O)N3CC[C@@]4(O)CCCC[C@H]4C3)ccc12,-2.3,1.1,i,-7.9,x,-5.2,4.2,3.5,3.1,-0.9
O=C(CN=C1NS(=O)(=O)c2ccccc21)OCC(=O)c1ccccc1,-3.4,8.1,i,-20.9,-9.7,13.2,1.7,-0.8,7.0,6.3
CCCNC(=O)NCc1ccc(N2CCCC2=O)cc1,-6.2,8.9,x,5.7,-10.5,x,x,x,4.1,x
COc1cc(CNCc2ccc(C)cc2)cc(OC)c1OC,x,2.2,i,-2.3,1.3,5.5,2.1,-1.7,-0.6,-1.6
O=C(C[n+]1cccc(/C=N/O)c1)N1CCCc2ccccc21,-1.0,1.8,i,-5.2,4.0,14.6,10.9,0.7,1.7,-2.2
Nc1cc(S(=O)(=O)O)cc([N+](=O)[O-])c1O,-1.2,-4.4,i,-10.2,x,14.4,20.6,-1.7,0.7,-3.6
CN(C)CC/C=C1/c2ccc(F)cc2Sc2ccc(Cl)cc21,-3.4,-9.7,i,28.7,-7.4,-47.0,-54.5,-11.1,3.2,36.3*
O=C(NC1CCCC1)C(c1cccnc1)N(C(=O)c1ccco1)c1ccc(F)cc1 (stereo not drawn),-3.7,-2.8,x,1.0,x,5.5,8.3,0.1,-0.9,0.4
COc1cccc(Nc2nc(-c3ccc(O)cc3)cs2)c1,7.1,1.6,x,25.4,38.3,x,x,x,3.1,x
O=C(N/N=C/c1ccc(Cl)c([N+](=O)[O-])c1)c1ccc2nc[nH]c2c1,1.1,8.0,x,-5.8,4.0,x,x,x,-2.5,x

# Some values from the results shown:
# COc1ccc(Nc2oc(-c3ccc(OC)cc3)nc2C#N)cc1 @ Ecoli rRNA inh: 10.2
# O=C(CNc1cccc(S(=O)(=O)N2CCCC2)c1)Nc1ccc(F)c(F)c1 @ RanGTP-Impb inh: 0.6

# Going on with the list:
SMILES,Beta cell apopt,Calb FLC,FGF22 binding,T cruzi inh,ALR H2O2 inh,Ecoli rRNA inh,Ecoli rRNA inh OD600,Ecoli rRNA inh RFP,RanGTP-Impb inh,AF4-AF9 inh
Cc1ccc(-c2nc(CSc3nc4ccccc4c(=O)n3CCO)cs2)cc1,0.5,-13.7,i,22.0,98.4*,-4.4,2.8,8.5,-1.1,-1.7
CC(C)(C)OC(=O)NN1CC(=O)N2Cc3[nH]c4ccccc4c3C[C@H]2C1=O,-1.9,-9.6,i,-7.0,8.1,0.3,10.6,0.2,-2.2,0.9
CCCc1sc(N/N=C/c2ccccn2)nc1-c1ccc(F)cc1,90.9*,17.9,x,54.8*,1.4,x,x,x,-3.3,x
CCOC(=O)N1CCN(S(=O)(=O)c2ccc(OC)c3ccccc23)CC1,-0.5,-3.0,x,1.7,0.6,x,x,x,3.8,x
Cc1cc(C(=O)CN2C(=O)CN(C)C2=O)c(C)n1-c1cccc(S(=O)(=O)N2CCOCC2)c1,-0.1,-9.6,i,-0.8,-3.3,13.3,6.3,1.8,1.5,1.2
CCOC(=O)Cc1c(C)c2c(O)cc(O)cc2oc1=O,0.7,19.5,x,x,53.9,x,x,x,8.5,x
Cc1cccc(OCC(=O)NCC2CCCO2)c1C (stereo not drawn),-3.3,0.9,i,-3.5,x,8.3,6.7,0.4,5.9,-6.2
Cc1ccc(NC(=O)CCCn2nc(C)c3c(C)n(-c4ccccc4)nc3c2=O)c(Cl)c1,2.0,3.4,i,-3.2,1.8,4.5,5.5,2.1,-0.5,-2.7
CCOC(=O)c1ccc(NC(=O)CSc2nc(C)nc3c2c(=O)n(C)c(=O)n3C)cc1,3.9,24.3,i,-9.2,-58.4,0.3,10.0,-4.7,19.2*,-8.4
O=C(Cc1c[nH]c2ccccc12)OCC(=O)c1ccccc1,-6.3,-3.6,x,-10.3,42.3,0.4,-0.7,-0.6,-2.0,x
CCOC(=O)COc1coc(CN2CCN(c3ccccc3)CC2)cc1=O,x,-4.8,i,-1.9,52.6,8.5,13.6,1.0,-1.2,-9.9
COc1ccccc1C(=O)Nc1ccc2c(c1)OCO2,4.8,12.9,x,-22.7,-1.5,x,x,x,0.8,x
CCOc1cc(NS(=O)(=O)c2ccc(NC(C)=O)cc2)c(OCC)cc1NC(=O)C(C)C,4.7,-19.4,x,8.1,-34.5,x,x,x,18.0*,x
O=C(COc1cccnc1[N+](=O)[O-])Nc1ccc(Cl)c(S(=O)(=O)N2CCOCC2)c1,2.7,4.3,i,2.7,-13.9,-3.9,-8.5,-8.9,1.5,4.7
CN(CC(=O)Nc1c(Cl)cccc1Cl)C(=O)CCCN1C(=O)c2ccccc2C1=O,-0.3,-18.0,x,4.7,-1.4,x,x,x,0.3,x
O=C(CCl)Nc1ccc(N2CCCCCC2)cc1,7.6,0.5,i,9.1,98.8*,-24.6,-21.8,-9.0,-1.1,50.9*
CC(=O)NN1C(=O)c2ccc(Oc3cccc([N+](=O)[O-])c3)cc2C1=O,-6.0,-7.5,x,4.0,x,x,x,x,-1.2,x
CN1CCN(C2CCN(c3cccc(Cl)c3)CC2)CC1CCO (stereo not drawn),-9.0,-1.1,i,4.9,30.9,-5.8,7.8,2.4,-1.8,1.6
COc1ccc(NS(=O)(=O)c2cc(N/C(=N\S(=O)(=O)c3ccccc3)c3ccc(F)cc3)ccc2Cl)cc1,2.2,25.9,x,15.4,x,x,x,x,0.4,x
CC1(C)Cc2cccc(OCC(=O)Nc3ccc(OCC(N)=O)cc3)c2O1,1.7,-10.9,i,-5.4,-13.2,-5.6,-5.3,-0.9,1.7,-4.2
Nc1nc(NCCc2ccccc2)nc(NCc2ccccc2)c1[N+](=O)[O-],-6.1,-5.1,i,17.1,-3.4,-5.6,-2.7,-1.0,-0.5,-1.6
O=[N+]([O-])c1ccc2c(c1)[nH]c(=S)n2-c1ccccc1,-6.1,84.6*,i,-15.5,38.3,7.1,5.8,3.9,-2.5,-0.1
CCOc1ccc(-c2ccc(SCC(=O)NCC3CCCO3)nn2)cc1 (stereo not drawn),3.4,-4.6,i,-0.9,-5.0,-2.0,-0.4,1.1,-0.9,-2.0
O=C(OCC#CCSc1nnc(-c2cccc3ccccc23)o1)c1ccc2ccccc2c1,-8.1,x,i,x,-3.6,6.6,12.6,3.0,x,u
Cc1ccc(S(=O)(=O)N2CCCCC2)cc1NC(=O)CSc1nnc(N)s1,0.6,12.5,i,-2.1,-4.9,-0.3,-3.0,-1.1,-1.9,-0.1
S=C(NCc1ccccc1)NCc1ccc(Cl)cc1,-2.5,-27.6,i,x,-10.8,-48.8,-66.5,-9.5,x,-0.9
CC(=O)c1cccc(N2C(=O)CC(N3CCN(S(=O)(=O)c4ccccc4F)CC3)C2=O)c1 (stereo not drawn),0.1,x,i,x,-2.8,3.3,8.1,1.8,x,-1.1
Cc1ccc2nc(N3CCN(C(=O)c4cccs4)CC3)c(C#N)cc2c1,-5.6,-3.4,x,9.5,-6.1,x,x,x,18.5*,x
CC(=O)c1cccc(NS(=O)(=O)c2ccc(N/C=C/C(=O)c3ccc(F)cc3)cc2)c1,111.8*,-6.5,x,-18.1,0.0,x,x,x,-0.9,x
Cc1oc2cc3oc(=O)c(CCC(=O)NC4CC4)c(C)c3cc2c1C,31.6,-0.7,i,-13.7,x,-9.5,2.9,3.3,1.3,-3.4

# ALR H2O2 inh, hit marks shown above
compound	FGF22 binding	ALR H2O2 inh	Ecoli rRNA inh	Ecoli rRNA inh OD600	Ecoli rRNA inh RFP	RanGTP-Impb inh	AF4-AF9 inh
Cc1ccc(-c2nc(CSc3nc4ccccc4c(=O)n3CCO)cs2)cc1	i	98.4*	-4.4	2.8	8.5	-1.1	-1.7
O=C(CCl)Nc1ccc(N2CCCCCC2)cc1	i	98.8*	-24.6	-21.8	-9.0	-1.1	50.9*

# Structures shown so far containing a thiophene ring, fused or not:
SMILES,Beta cell apopt,Calb FLC,FGF22 binding,T cruzi inh,ALR H2O2 inh,Ecoli rRNA inh,Ecoli rRNA inh OD600,Ecoli rRNA inh RFP,RanGTP-Impb inh,AF4-AF9 inh
COc1ccccc1NC(=O)Cc1noc(CN(C)Cc2cccs2)n1,-3.4,1.1,x,-1.5,-16.2,x,x,x,2.4,x
Cc1ccc2nc(N3CCN(C(=O)c4cccs4)CC3)c(C#N)cc2c1,-5.6,-3.4,x,9.5,-6.1,x,x,x,18.5*,x

# Assay outcomes as filed in PubChem.
